Assay outcomes deposited in PubChem by National Center for Advancing Translational Sciences (NCATS).
TRPML1 ag = qHTS for Agonists of the Human Mucolipin Transient Receptor Potential 1 (TRPML1); TRPML1-expressing cells, Ca2+ dye fluorescence, FDSS; host cell line not named in the record; reference of the full effect not given here; Mucolipin-1 (Homo sapiens), Q9GZU1; activation, % (test concentration not listed); 410,000 compounds, 0.12% hits; in the data active = activation above about 50%; inconclusive = about 30% to 50%; inactive = below about 30%; further: 0% is about no effect; the text of the record puts the active cut at 80%
Target sequence (Q9GZU1 whole entry, looked up): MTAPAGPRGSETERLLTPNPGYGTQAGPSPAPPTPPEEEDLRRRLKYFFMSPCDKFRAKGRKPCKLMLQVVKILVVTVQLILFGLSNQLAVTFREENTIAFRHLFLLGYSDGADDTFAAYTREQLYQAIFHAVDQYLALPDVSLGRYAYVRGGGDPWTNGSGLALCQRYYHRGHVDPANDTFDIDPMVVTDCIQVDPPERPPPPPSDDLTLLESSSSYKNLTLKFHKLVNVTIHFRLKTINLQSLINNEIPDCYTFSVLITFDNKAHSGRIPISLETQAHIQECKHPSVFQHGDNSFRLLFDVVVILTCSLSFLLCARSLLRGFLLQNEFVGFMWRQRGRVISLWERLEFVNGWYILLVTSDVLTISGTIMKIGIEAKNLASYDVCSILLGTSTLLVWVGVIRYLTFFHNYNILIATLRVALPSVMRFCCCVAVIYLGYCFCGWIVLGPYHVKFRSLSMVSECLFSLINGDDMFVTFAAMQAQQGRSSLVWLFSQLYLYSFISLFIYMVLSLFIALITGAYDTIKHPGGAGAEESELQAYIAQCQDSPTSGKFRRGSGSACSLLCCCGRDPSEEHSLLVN
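Agonist activity was taken from a 110 s kinetic Ca2+ dye read on the FDSS after pinning compounds onto TRPML1-DL cells. The cells were seeded at 1,500/well with Tet inducer, incubated about 16 h, then dye-loaded at room temperature.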
D2 agonist = Beta-Arrestin HTS for Positive Allosteric Modulators of the Human D2 Dopamine Receptor: Agonists; D(2) dopamine receptor (Homo sapiens), P14416; DiscoveRx PathHunter D2 beta-arrestin, luminescence, 90 min; 100% = 57 uM dopamine signal; activation, % (concentration not given with the values); 360,000 compounds, 0.084% hits; AID 624465, 2012; in the data active = activation above about 40%; inconclusive = about 15% to 40%; inactive = below about 15%; further: the text of the record calls up to 30% inactive
Target sequence (P14416 whole entry, looked up): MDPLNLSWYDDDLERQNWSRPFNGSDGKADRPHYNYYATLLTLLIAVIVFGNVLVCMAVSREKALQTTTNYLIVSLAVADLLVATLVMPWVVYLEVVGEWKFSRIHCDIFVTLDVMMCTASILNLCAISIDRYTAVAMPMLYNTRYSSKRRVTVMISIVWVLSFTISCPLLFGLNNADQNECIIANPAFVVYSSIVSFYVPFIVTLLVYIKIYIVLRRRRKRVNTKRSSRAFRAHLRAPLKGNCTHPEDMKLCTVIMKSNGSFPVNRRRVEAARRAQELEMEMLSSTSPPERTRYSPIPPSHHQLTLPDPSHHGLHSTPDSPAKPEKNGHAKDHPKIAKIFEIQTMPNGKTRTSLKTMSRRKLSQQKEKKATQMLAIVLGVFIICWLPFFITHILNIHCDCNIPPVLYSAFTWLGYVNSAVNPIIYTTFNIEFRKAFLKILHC
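DiscoveRx PathHunter D2 beta-arrestin cells (2,100/well) attached overnight, then compound-stimulated 90 min at 37 C in HBSS/10 mM HEPES/0.1% Tween-20 buffer; beta-galactosidase complementation read by luminescence after 1 h at ambient temperature. Dopamine 57 uM final (EC100) as control.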
PINK1 modulator = A Quantitative High throughput Screen to Identify Chemical Modulators of PINK1 Expression | 410,000 compounds, 0.2% hits | Potency, µM (doses to about 76.6 µM), for inactives: at the highest dose activation (PINK1 increase), hits mostly activators | PINK1 immunofluorescence, high-content cytometry, 24 h; active = well fitted activation curve with a large enough effect; inconclusive = small, poorly fitted or top-dose-only effect; inactive = flat fitted curve, though single readings scatter; cell line not stated here;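 further: potency means the concentration at half of the fitted maximal effect; % of control where 0% means no effect; nearly all actives have a fitted effect of over 65% in size; a mitochondrial uncoupler was the plate control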
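PINK1 protein level read as immunofluorescence by microplate cytometer in a fixed, stained stable cell line after 24 h exposure to five compound concentrations, with CCCP as control.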
CtBP-E1A inh = qHTS Assay for Inhibitors of the CtBP/E1A Interaction | CtBP / adenovirus E1A interaction (AlphaScreen) | AlphaScreen GST-E1A/His-CtBP binding, 1536-well; active compounds read low; control for the full effect not named in the record | activity change, % (concentration not given with the values) | 340,000 compounds, 0.49% hits; in the data active means activity change below about -65%; inconclusive means about -30% to -65%; inactive means above about -30%; further: on the % scale 0 is the no-effect control and ±100 the full control effect
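In 5 uL wells, 23 nL compound meets equimolar GST-E1A and His-CtBP (5X stock 125 nM each) for 2 h, 37 °C. Beads (5X, 50 ug/mL) then 1 h, 37 °C, dark.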
D2 PAM = Beta-Arrestin HTS for Positive Allosteric Modulators of the Human D2 Dopamine Receptor: Potentiators | D(2) dopamine receptor (Homo sapiens), P14416 | DiscoveRx D2 beta-arrestin cells, luminescence, 90 min; 100% = 57 uM dopamine signal | potentiation, % (concentration not given with the values) | 360,000 compounds, 0.23% hits; active = potentiation of 50% or more; inconclusive = 30% to 50%; inactive = 30% or less;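 further: tested on top of an EC20 dose of dopamine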
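D2 cells co-treated with compound plus 50 nM dopamine (EC20) for 90 min at 37 deg C to detect potentiation. Beta-arrestin recruitment was read as enzyme-fragment luminescence after 1 h at ambient temperature. Full response was set by 57 uM dopamine.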
Six1-Eya2 blk = qHTS Assay for Inhibitors of the Six1/Eya2 Interaction; AlphaScreen GST-Six1/His-Eya2 binding, biochemical; active compounds read low; control for the full effect not named in the record; 360,000 compounds, 0.56% hits; Homeobox protein SIX1 (Homo sapiens) + Protein phosphatase EYA2 (Homo sapiens), …; activity change, % (no concentration beside the values); in the data active = activity change below about -65%; inconclusive = about -30% to -65%; inactive = above about -30%; further: on the % scale 0 is the no-effect control and ±100 the full control effect
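Six1/Eya2 binding was read as AlphaScreen signal after compounds were pinned into GST-Six1 plus His-tagged Eya2 (5X stock 250/500 nM) in pH 8.0 Tris/NaCl/TCEP buffer, beads added, then incubated 1 h, 37 C, dark.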
* hit, by the source's call; u = inconclusive; x = not tested or not shown; & = joins results of further samples; [ ] = another dose, or the depositor's remark. No enrichment for hits (roughly 1.3% active in at least one column).

SMILES	TRPML1 ag	D2 agonist	PINK1 modulator	CtBP-E1A inh	D2 PAM	Six1-Eya2 blk
CCCC(=O)Nc1ccc(C2C(=O)c3ccccc3C2=O)cc1	-0.2	-6.3	0.4%	6	-8	5
CCS(=O)(=O)N1CCCC(C(=O)NCCc2ccc(OC)c(OC)c2)C1 (stereo unspecified)	-0.8	-2.8	-1.1%	7	4	13
CC(C)=C1C2CCC1C1C(=O)N(c3ccc(C)c(C)c3)C(=O)C21 (stereo unspecified)	0.8	-1.5	0.2%	5	-15	4
C[C@H](NC(=O)[C@@H]1Cc2ccccc2CN1C(=O)OC(C)(C)C)C(=O)NCc1ccco1	-0.9	2.2	-0.4%	-18	-10	-2
COc1ccc(C(CC(=O)O)NC(=O)c2sc3ccccc3c2Cl)cc1 (stereo unspecified)	2.7	-1.1	-0.7%	-19	-1	-2
Cc1cccc(-c2nnc3n2N=C(c2ccccc2)CS3)c1	0.2	-3.3	2.4%	-5	-19	-2
CN(Cc1ccc(Cl)cc1)C(=O)c1[nH]c(C(F)(F)F)nc1-c1ccccc1	-0.4	-0.8	0.1%	-2	2	-8
FC(F)(F)c1ccccc1N/N=C/c1cccnc1	1.1	-1.3	0.9%	6	-5	-4
NS(=O)(=O)c1ccc(NC(=S)NC(=O)c2ccc(-c3ccccc3)cc2)cc1	0.1	-0.6	2.1%	-2	13	-1
COc1ccc(C2/C=C\CN(C(=O)c3ccccc3)CC(=O)N2Cc2ccc(F)cc2)cc1 (stereo unspecified)	1.5&3.8	2.9	-0.4%	4	-3	-1
COc1ccc(CCNC(=O)CSc2nc3ccccc3o2)cc1OC	-0.8	0.3	0.8%	-1	9	1
O=C1Nc2ccccc2C1=Nc1cccc([N+](=O)[O-])c1	-0.3	-17	-0.5%	x	-52	5
COc1ccc(OC)c(NC(=O)CSc2nnc(-c3ccco3)n2-c2ccc(C(=O)O)cc2)c1	2.3	-1.9	2.1%	-2	-12	-2
CCOc1ccc(NC(=S)N2CCC(NC(=O)c3ccccc3C)CC2)cc1	0.9	5.5	8.5%	2	3	17
Cc1[nH]c(=S)[nH]c(=O)c1Cc1ccccc1	0.0	2.3	x	7	7	6
O=C1[C@H]2[C@@H](c3ccccc3)N[C@]3(CCCN(Cc4ccccc4)C3=O)[C@H]2C(=O)N1Cc1ccccc1	-0.6	-5.6	1.4%	0	-3	-8
CCCc1nc2ccc(C)cn2c1Cc1cccc(F)c1	-0.5	-4.2	7.0%	-6	-9	-6
CSCCCc1cn([C@@H](CO)C(=O)NCCCCCCCCCCC(=O)N2CCNCC2)nn1	-0.5	-1.8	0.9%	2	-13	-1
Cn1c(=O)c2c(ncn2CC(=O)OCC(=O)Nc2ccc(F)cc2F)n(C)c1=O	-1.1	-3.6	0.9%	x	-5	-11
O=C(Cn1cnc([N+](=O)[O-])n1)N/N=C/c1ccc2ccccc2c1	0.6	3.2	0.7%	1	0	-5
CCOc1ccc(OCC)c(NC(=O)CSc2nnc(-c3cccnc3)o2)c1	0.8	-2.6	-2.1%	0	-10	21
O=C(Nc1ccc2oc(Cc3ccc(Cl)cc3)nc2c1)c1cccnc1	1.0	5.4	x	7	-11	-1
CC1(Oc2cccc(Cl)c2)CCN(Cc2ccc(OC(F)(F)F)cc2)C1 (stereo unspecified)	-0.9	8.8	u	5	-6	1
CCOC(=O)C1CCN(C(=O)CCNC(=O)c2cc(OC)c(OC)c(OC)c2)CC1	-0.1	1.0	-1.4%[38.3 µM]	-5	0	-1
O=C(OCC(=O)N1CCN(c2ccccc2)CC1)C1CCCN1S(=O)(=O)c1ccc(Cl)cc1 (stereo unspecified)	0.0	-5.9	1.1%	3	12	-1
Following part
SMILES	TRPML1 ag	D2 agonist	PINK1 modulator	CtBP-E1A inh	D2 PAM	Six1-Eya2 blk
Cc1onc(-c2ccccc2)c1C(=O)NCCSCc1ccco1	0.3	-1.5	0.5%	-5	3	2
CCN=C(NCC)SC1CC(=O)N(c2cccc(OCC)c2)C1=O (stereo unspecified)	-0.3	0.1	2.8%	6	-35	-1
COc1ccccc1OCC(=O)Nc1ccccc1C(=O)N1CCCCC1	-0.5	-0.7	1.0%	-6	-8	25
CC(OC(=O)CCN=C1NS(=O)(=O)c2ccccc21)C(=O)N(C)C1CCCCC1 (stereo unspecified)	-0.6	2.2	1.9%	0	2	7
CCOC(=O)N1CCN(C2CC(=O)N(c3ccccc3)C2=O)CC1 (stereo unspecified)	0.3	-0.9	u	2	1	2
COCCn1cnc2c1c(=O)n(Cc1cc(C(C)=O)ccc1OC)c(=O)n2Cc1ccccc1	-0.1	2.5	8.7%	5	1	5
CCCCC(=O)NC(Nc1cc(C)ccn1)(C(=O)OCC)C(F)(F)F (stereo unspecified)	-0.8	-0.3	2.6%	4	-7	-1
CSCCC(NC(N)=O)C(=O)NCc1ccc(Cl)cc1 (stereo unspecified)	0.3	0.5	-2.6%	-2	-8	7
Cc1cc(C)cc(NC(=O)/C(C#N)=C/c2cn(CC(=O)NCc3ccco3)c3ccccc23)c1	1.4	1.5	-1.9%	4	1	2
Cc1ccc(OCCNC(=O)CN2C(=O)NC3(CCCC3)C2=O)cc1	1.1	0.0	0.2%	3	-57	5
CCN(c1ccc(OC)cc1)S(=O)(=O)c1ccc2c(c1)CCN2C(=O)CCC(=O)O	0.7	0.0	-3.4%[38.3 µM]	-18	-8	-2
CCOC(=O)Cn1cc(/C=C(/C#N)C(=O)NC(C)C)c2ccccc21	0.0	1.7	-1.1%	11	-3	-10
Cc1ccc(S(=O)(=O)n2c(N)nc3cc(C)c(C)cc32)cc1	-1.3	4.8	8.6%	-13	-4	3
O=C(O)C1CCCN1C(=O)NC1CCCCC1 (stereo unspecified)	-0.5	-0.9	1.1%	x	-1	4
NC(=O)CCn1c2ccccc2c2ccccc21	-0.5	-4.7	-0.1%	2	-8	2
O=C(c1cc(Br)ccc1OC(F)F)N1CCN2CCCC2C1 (stereo unspecified)	-0.2	-0.9	4.0%	6	-4	3
CCN(C(=O)CSc1nc2ccc(OC)cc2[nH]1)C1CCS(=O)(=O)C1 (stereo unspecified)	-0.5	-3.5	0.4%	2	-3	-1
C/C(=N/NS(=O)(=O)c1cccc([N+](=O)[O-])c1)c1ccc2c(c1)OCO2	-0.8	-2.9	-0.4%	-25	-12	-14
CCCCC(=O)N(Cc1nc2sc(C)c(C)c2c(=O)[nH]1)C1CCCC1	2.4	-4.4	1.1%	-21	-8	0
CCOCCc1nnc(NC(=O)C2CCN(C(=O)c3ccco3)CC2)s1	0.7	-3.3	-1.5%	-2	-2	13
O=C(NCc1ccc(F)cc1)c1cc(C2CCCCN2S(=O)(=O)c2ccccc2)on1 (stereo unspecified)	-0.6	-4.2	-0.3%	1	5	-1
Cc1onc(-c2ccccc2)c1C(=O)NNC(=S)NC(=O)/C=C/c1cccs1	1.7	-14	17%	-21	-34	-18
Cc1cc(C)c(C)c(S(=O)(=O)NCC(=O)Nc2ccc(F)cc2)c1C	1.4	1.4	2.4%	0	-7	8
CN(C)CCN1C(=O)C(O)=C(C(=O)c2cc3ccccc3o2)C1c1cccc(Br)c1 (stereo unspecified)	-1.3	-3.4	-3.3%	-24	-20	-7
OC(c1ccc(Cl)c(F)c1)c1ncc(-c2cccc(F)c2)[nH]1 (stereo unspecified)	-1.1	4.2	5.3%	-3	-1	-8
Continued:
SMILES	TRPML1 ag	D2 agonist	PINK1 modulator	CtBP-E1A inh	D2 PAM	Six1-Eya2 blk
COc1ccc(S(=O)(=O)NC2CC(=O)N(c3ccccc3)C2)cc1C (stereo unspecified)	1.4	-2.9	-0.1%	3	-28	1
COc1ccccc1NC(=O)CCSc1nnnn1C	0.3	-2.4	-1.2%	16	12	-8
Cc1cn(C2CCCCO2)c(=O)nc1NO (stereo unspecified)	0.8	1.8	1.6%	-3	11	10
CN(C)CCCNC(=O)c1cc(C(=O)c2ccc(F)cc2)c[nH]1	0.4	-5.2	0.8%	6	-12	-4
Cc1nsc(Nc2ccccc2)c1C#N	0.0	-2.1	-2.2%	x	-10	4
CCOC(=O)/C(C#N)=C/Nc1cc(F)ccc1C	1.0	-0.8	-1.6%	0	-5	7
c1ccc(SCCCCN2CCOCC2)cc1	-0.4	1.3	1.0%	x	-6	5
CC(=O)N(c1c(C)n(C)n(-c2ccccc2)c1=O)C1(C(=O)NC2CCCCC2)CCCCC1	0.0	0.1	-0.5%	-5	-6	0
COc1ccccc1-c1cc(C(=O)NCCCn2ccnc2)no1	-0.1	1.0	-0.7%[38.3 µM]	-6	-15	-3
COc1cc(C(=O)NC(C)c2cnn(-c3ccccc3C)c2C)cc(OC)c1OC (stereo unspecified)	1.1	-5.0	0.8%	5	-12	13
CC(=O)N1CCOc2ccc(S(=O)(=O)NC[C@H]3O[C@@H](n4ccc(N)nc4=O)[C@H](O)[C@@H]3O)cc21	x	-3.0	0.0%	-25	x	2
Cc1ccc(NC(=O)Cc2ccc3c(c2)OCCO3)cc1S(=O)(=O)N1CCCCC1	0.9	-1.9	0.7%	0	-4	5
Cc1ccccc1OCCOc1ccc([N+](=O)[O-])cc1/C=N/n1cnnc1	2.3	-0.5	3.7%	2	-9	2
COC(=O)[C@]12CCCCC=C1N(Cc1ccco1)C(=O)[C@H](CC(=O)N1CCC(c3ccccc3)CC1)C2	-0.9	x	1.4%	-14	x	-11
C=CCn1c(=O)[nH]c2cc(C(=O)N3CCN(c4cccc(Cl)c4)CC3)ccc2c1=O	-0.5	-3.1	0.8%	-10	-10	-10
O=C(Nc1ccc([N+](=O)[O-])cc1)C(Cc1ccccc1)N1C(=O)c2cccc3cccc(c23)C1=O (stereo unspecified)	0.3	-2.3	10%	7	-4	-4

Fetched by compound from above (six):
SMILES	TRPML1 ag	D2 agonist	PINK1 modulator	CtBP-E1A inh	D2 PAM	Six1-Eya2 blk
CC(=O)N1CCOc2ccc(S(=O)(=O)NC[C@H]3O[C@@H](n4ccc(N)nc4=O)[C@H](O)[C@@H]3O)cc21	x	-3.0	0.0%	-25	x	2
O=C(Nc1ccc([N+](=O)[O-])cc1)C(Cc1ccccc1)N1C(=O)c2cccc3cccc(c23)C1=O (stereo unspecified)	0.3	-2.3	10%	7	-4	-4
CCOC(=O)/C(C#N)=C/Nc1cc(F)ccc1C	1.0	-0.8	-1.6%	0	-5	7
COc1ccc(S(=O)(=O)NC2CC(=O)N(c3ccccc3)C2)cc1C (stereo unspecified)	1.4	-2.9	-0.1%	3	-28	1
COc1ccccc1NC(=O)CCSc1nnnn1C	0.3	-2.4	-1.2%	16	12	-8
Cc1nsc(Nc2ccccc2)c1C#N	0.0	-2.1	-2.2%	x	-10	4
